# VDR inh: Inhibitors of the vitamin D receptor (VDR): qHTS; Vitamin D3 receptor (Homo sapiens), P11473; VDR-SRC2-3 peptide fluorescence polarization, 2 h; Potency, µM, without a hit: max response, negative = inhibition, actives largely listed as inhibitors; 400,000 compounds, 0.93% hits; active means well fitted inhibition curve with a large enough effect; inconclusive means small, poorly fitted or top-dose-only effect, or another doubt; inactive means no such curve, though single readings can be large or run the other way; further: series mostly up to about 120 µM
# Target sequence (P11473 whole entry, looked up): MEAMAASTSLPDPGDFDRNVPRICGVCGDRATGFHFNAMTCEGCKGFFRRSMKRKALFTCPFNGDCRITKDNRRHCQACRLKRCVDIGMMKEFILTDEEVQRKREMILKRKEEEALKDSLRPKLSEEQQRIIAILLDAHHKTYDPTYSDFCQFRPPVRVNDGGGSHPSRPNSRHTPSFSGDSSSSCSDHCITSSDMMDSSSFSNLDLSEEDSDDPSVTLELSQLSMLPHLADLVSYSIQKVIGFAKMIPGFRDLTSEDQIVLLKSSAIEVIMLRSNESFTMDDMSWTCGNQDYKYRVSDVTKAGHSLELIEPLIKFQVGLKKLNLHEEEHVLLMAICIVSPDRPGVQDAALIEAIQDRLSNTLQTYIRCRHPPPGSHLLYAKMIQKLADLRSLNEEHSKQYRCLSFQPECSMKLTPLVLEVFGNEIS
#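 Fluorescence polarization assay of small-molecule disruption of VDR binding to coregulator peptide SRC2-3. Compounds and controls pin-transferred, then read after 2 h incubation at ambient room temperature.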
# Active calls of the source: *; ? = inconclusive; & = joins results of further samples. On the % scale 0 is the no-effect control and ±100 the full control effect; potency means the concentration at half of the fitted maximal effect. Not all compounds are listed (hit frequency here may not be typical).
SMILES,VDR inh
O=C(c1ccc2[nH]c(=O)c(=O)[nH]c2c1)N1CCc2ccccc2C1,5.1%
Cc1ccc(C(=O)CSc2nnnn2-c2ccccc2)o1,-14.2%
CC1(C)SC(C)(C)N(C=O)C1C(=O)O (stereo unspecified),-3.5%
C[C@]12CS(=O)(=O)C[C@H]1SC(=S)N2c1ccccc1,-22.1%
Nn1c(SCC(=O)Nc2ccc3c(c2)OCO3)nnc1-c1ccccc1,-3.1%
O=C(c1ccc(NS(=O)(=O)c2ccc(F)cc2)cc1)N1CCCCC1,-12.7%
COc1ccccc1CNc1cc(-c2ccc(C(=O)N(C)C)cc2)ncn1,-1.9%
O=C(N/C(=C\c1cccnc1)C(=O)N1CCC(O)CC1)c1ccccc1,-15.1%
O=C1C=C(c2ccc(Br)c3ccccc23)C[C@@H](c2ccc3c(c2)OCO3)C1,-8.2%
CCOc1ccc(-n2cc(-c3ccccc3)c3c(NCc4ccccc4)ncnc32)cc1,-0.8%
O=C1Nc2ccccc2/C1=C/c1ccc([N+](=O)[O-])cc1,-9.8%
COc1ccc(OCCNC(=O)c2ccccc2Cl)cc1,-7.3%
O=C(CN(C(=O)c1csnn1)c1ccc(Cl)cc1)NCc1ccc2c(c1)OCO2,13.0%
OCCC1CN(CC2CC2)CCN1Cc1ccc(F)c(F)c1 (stereo unspecified),-15.1%
CCOC(=O)c1ccc2c(c1)[nH]c(=S)n2CC,6.4%
CCCc1nc2nc(C)c(NS(=O)(=O)c3ccc(Cl)cc3)c(=O)n2[nH]1,-0.9%
O=C1N=C(N2CCOCC2)S/C1=C1\C(=O)N(Cc2ccccc2)c2ccccc21,-5.1%
CN(Cc1ccccc1)C(=O)CN1C(=O)NC2(CCCCCCC2)C1=O,-15.1%
COc1ccc(S(=O)(=O)NC(C)C(=O)NCc2ccccn2)cc1OC (stereo unspecified),3.8%
COc1ccc(NC(=O)CN2C(=O)CCc3cc(S(=O)(=O)N4CCOCC4)ccc32)cc1Cl,12.0%
COc1cccc(C=Nc2cccc3c(=O)[nH][nH]c(=O)c23)c1O,-18.4%
O=C(COC(=O)/C=C/c1ccccc1)NCc1cccs1,9.9%
COc1cccc(NC(=O)CN(C)CC(=O)Nc2ccc(C)c(S(=O)(=O)N3CCOCC3)c2)c1,20.7%
CN(C)c1ccc(CNS(=O)(=O)c2csc(C(N)=O)c2)cc1,-19.8%&-1.6%
Cc1cccc(/C=N/n2c(-c3ccco3)n[nH]c2=S)c1,3.2%
Cc1cn2c(=O)cc(COC(=O)C(C)Oc3ccccc3)nc2s1 (stereo unspecified),-0.4%
CCN1CCN(C(=O)C2CCC(CNS(=O)(=O)c3ccccc3)CC2)CC1 (stereo unspecified),10.5%
CC(C)CC(=O)Nc1cccc(-c2nc3ncccc3o2)c1,10.4%
CCOC(=O)N1CCN(Cc2nc3cc(NC(=O)c4ccc(F)cc4)ccc3n2C(C)C)CC1,1.9%
Cc1ccccc1-c1cncnc1N(C)Cc1ccco1,39.8µM*
Cc1c(Cl)ccc2sc(NC(=O)c3ccc(S(=O)(=O)N4CCCC4)cc3)nc12,7.4%
O=C(NCCCO)/C(=C\c1ccco1)NC(=O)c1ccc(Br)o1,-20.7%
COc1ccccc1NS(=O)(=O)c1ccc(NC(=O)c2ccncc2)cc1,7.6%
O=C(Cn1c(=O)n(-c2ccc(F)cc2)c(=O)c2sccc21)NC1CCCCC1,25.8%
COc1ccc(C2CC(=O)c3cnc4c(-c5ccccc5)c(C)nn4c3C2)c(OC)c1 (stereo unspecified),-9.0%
Cc1cccc(-n2nnnc2SC(C)C(=O)NCCC2=CCCCC2)c1 (stereo unspecified),6.3%
CN(C)c1ccc(NC(=O)CN2CCN(c3ccc(F)cc3)CC2)cc1,-21.2%
CCc1ccc(N(C(=O)CCC(=O)Nc2cc(C)on2)C(C(=O)NC2CCCC2)c2ccco2)cc1 (stereo unspecified),-7.6%
CCOC(=O)C1=C(C)NC(=O)NC1c1ccc(OCC(N)=O)cc1 (stereo unspecified),9.8%
Cc1ccc(S(=O)(=O)NC2CC3CCC2C3)cc1 (stereo unspecified),12.9%
CCNC(=O)COC(=O)c1sccc1C,-15.1%
C/C(=C\C[Si](C)(C)C)CCC=O,-10.8%
COc1ccc(C2CC(C(F)(F)F)n3nc(C(=O)NCc4cn(C)nc4C)c(Cl)c3N2)cc1 (stereo unspecified),-2.9%
CC(C)C(=O)Nc1ccc(N2CCN(C(=O)c3cccs3)CC2)cc1,-2.4%
O=C(NCCCn1ccnc1)C1CCN(S(=O)(=O)c2cc([N+](=O)[O-])ccc2Cl)CC1,0.5%
C=CCn1c(SC(C)C(=O)c2c(N)n(C)c(=O)n(C)c2=O)nnc1-c1ccoc1C (stereo unspecified),-13.2%
Cc1ccc(C23CC4CC(CC(C(=O)NC(C)C(N)=O)(C4)C2)C3)cc1 (stereo unspecified),-9.2%
O=C(CCN1C(=O)/C(=C/c2ccco2)SC1=S)Nc1ccc(O)cc1C(=O)O,?
O=C(CSc1nnc(-c2cccs2)n1-c1ccccc1)N1CCCC1,-12.3%
Cc1cc(Nc2cccc(Cl)c2)nc(-c2ccccc2O)n1,-5.3%
CS(=O)(=O)N(CC(=O)NCC1CCCO1)c1ccc(F)c(Cl)c1 (stereo unspecified),-5.5%
CCOC(=O)C1CCCN(C(=O)CSCc2ccccc2)C1 (stereo unspecified),-5.3%
C=CCNC(=O)N1CCc2[nH]c3ccc(F)cc3c2C1,2.4%
N#Cc1ccccc1COc1ccc(/C=C/C(=O)O)cc1,20.2%
Cc1ccc(/C=C/C(=O)O)cc1S(=O)(=O)NCC1CCCO1 (stereo unspecified),5.8%
Cc1cc(C)c(NC(=O)CNC(=O)c2ccccc2SCC(=O)N2CCCC2)c(C)c1,-14.4%
Cc1cccc(N2C(=O)/C(=C/c3cccnc3)SC2=S)c1,-13.2%
COc1ccc(/C(O)=C/C(=O)C(=O)NNC(=O)c2ccccc2)cc1,14.9%
Cc1cc(Cl)cc(C)c1OCC(=O)N1CCN(c2ncccn2)CC1,-7.4%
CN(CCOC(=O)c1ccc2c(c1)OCO2)C(C)(C)C,-4.3%
# (further entries)
SMILES,VDR inh
Cc1ccc(OCCSc2nc3ccc(NC(=O)c4ccco4)cc3s2)cc1,-0.6%
COc1cc(OC)cc(-c2nnc(SCc3c(F)cccc3Cl)o2)c1,-1.9%
O=C(O)c1ccc(S(=O)(=O)c2ccc([N+](=O)[O-])cc2[N+](=O)[O-])cc1,22.4µM*
CCOC(=O)c1ccc(CNCc2ccccc2)cc1,-12.5%
COc1cc(N=C2C(=O)N3c4c(cccc42)C(C)=CC3(C)C)cc(OC)c1,?
Cc1ccc(C(=O)Nc2nc3ccccc3c(=O)s2)cc1,?
O=C(/C=C/c1ccccc1)NC(NC(=S)Nc1cccc(Cl)c1)C(Cl)(Cl)Cl (stereo unspecified),11.0%
O=[N+]([O-])c1ccc(NC2CCN(Cc3ccccc3)CC2)c([N+](=O)[O-])c1,-5.7%
CCOC(=O)c1cc(CC)sc1NC(=O)CSc1nc2ccccc2c(=O)n1Cc1ccco1,-15.3%
COc1cccc(CNC(=O)CSc2nc3c(oc4ccccc43)c(=O)n2CC2CCCO2)c1 (stereo unspecified),7.3%
CCOC(=O)c1cnc2c(C)cc(C)cc2c1Nc1ccc(S(=O)(=O)Nc2ncccn2)cc1,-9.8%
CNC(=S)NNC(=O)c1ccc(N(C)C)cc1,23.3%
CCN(CC)c1ccc(NC(=O)COCc2cc(-c3ccc4c(c3)OCO4)on2)c(C)c1,-2.7%
CC(C)CN1C(=S)SC(C)(C)C1n1oc(=O)n(-c2ccccc2)c1=O (stereo unspecified),-20.0%
Cc1ccc(S(=O)(=O)Nc2cccc3cccnc23)c([N+](=O)[O-])c1,-0.7%
CN(C(=O)CC1C(=O)NCCN1Cc1ccc2ccccc2c1)C1CCOCC1 (stereo unspecified),-10.5%
CCCn1c(=O)c2sccc2n2c(CCCC(=O)NCC3CCCO3)nnc12 (stereo unspecified),14.9%
O=C(Nc1ccc2c(c1)OCO2)c1noc2c1CCCC2,-1.4%
Cc1cccc(NC(=O)NC2CC(=O)N(c3ccc4c(c3)OCCO4)C2)n1 (stereo unspecified),-4.5%
Cc1ccc(N2C(=O)CC(SCC(=O)Nc3ccc(S(N)(=O)=O)cc3)C2=O)cc1 (stereo unspecified),-5.9%
O=C(NCCc1ccc(Cl)cc1)C(=O)NCC(c1ccco1)S(=O)(=O)c1ccccc1 (stereo unspecified),9.5%
O=S(=O)(c1ccc(S(=O)(=O)N2CCCC2)cc1)N1CCCCC1,-14.1%
O=C1NC(=S)S/C1=C\c1ccc(SCc2ccco2)o1,44.7µM*
COC(CNC(=O)CNC(=S)N(Cc1ccccc1)Cc1cccnc1)OC,-17.9%
Cc1cc(S(=O)(=O)N2CCCC2)ccc1OCC(=O)NCc1ccccc1,23.3%
Cc1ccc(SCC(=O)Nc2ccc(-c3nc4ccccc4[nH]3)cc2)cc1,-15.7%
CCOc1ccc(-n2ccnc2)nn1,12.8%
CC(C)(C)NC(=O)C(c1ccccn1)N(C(=O)c1ccc2c(c1)OCCO2)C1CCCC1 (stereo unspecified),-0.5%
N=C1C(=O)NC(=O)C1c1ccccc1 (stereo unspecified),-20.5%
Cc1ccc(C)c(-n2c3nc(=O)[nH]c(=O)c-3cc3c(C)nn(-c4ccccc4)c32)c1,6.8%
COc1ccc(/C=N/NC(=O)CNS(=O)(=O)c2ccccc2)cc1,1.8%
CC(=O)/C(=C/Nc1ccc(Oc2ccccc2)cc1)c1ccccc1,-12.3%
CCCn1c(-c2cc(OC)c(OC)c(OC)c2)nc2c1c(=O)[nH]c(=O)n2Cc1ccccc1,4.9%
CN(C)C=Nc1c(Br)cc(Br)c2nonc12,?
O=C(Nc1cc(C(F)(F)F)cc(C(F)(F)F)c1)c1ccc(Cn2cc(C(F)(F)F)ccc2=O)cc1,13.3%
Cn1c(CNC(=O)CSc2nc(-c3cccc(Cl)c3)nc3cc(=O)[nH]n23)nc2ccccc21,5.3%
O=C(CSc1nc2ccccc2n1S(=O)(=O)c1cccc([N+](=O)[O-])c1)NCc1cccs1,-0.5%
O=C(NCCSCc1c(F)cccc1Cl)c1ccc(CN2CCOCC2)cc1,-7.2%
O=C(Nc1ccccc1-c1ccccc1)C1CCC1,-0.5%
Cc1ccc(N2C(=O)CCSC23C(=O)N(Cc2ccc(F)cc2)c2ccccc23)cc1 (stereo unspecified),-11.2%
CCOC(=O)c1[nH]c2ccc(OC)cc2c1NC(=S)N1CCN(c2cccc(C)c2C)CC1,-7.7%
Cc1cccc(-n2ncc3c2CCCC3NC(=O)CCN2CCCO2)c1C (stereo unspecified),-3.2%
CCn1nc(C)c(/C=N/NC(=O)c2nc3nc(C)cc(C)n3n2)c1C,-3.8%
COc1ccc(NC(=O)COC(=O)C23CC4CC(CC(O)(C4)C2)C3)cc1Cl,-5.9%
O=C(N[C@@H](Cc1ccc(O)cc1)C(=O)O)c1cccnc1,15.7%
C/C(=N\O)C(C)(C)Nc1ccc(Br)cc1,7.4%
COc1ccccc1NC(=O)CSc1n[nH]c(-c2ccco2)n1,?
Cc1cc(C(=O)CSc2nn3c(=O)c(C(C)(C)C)nnc3s2)c(C)n1C,24.8%
CC[C@@]12C(=O)N(c3cccc(F)c3)C(=O)N1[C@H](c1ccc(Cl)cc1)[C@@H]1C(=O)N(C3CCCCC3)C(=O)[C@@H]12,-28.6%
O=C1/C(=C/c2ccccc2)SC(=S)N1CCCC(=O)N1CCCCC1CCO (stereo unspecified),-9.5%
CC(C)CN1C(=O)C(=O)N(CC(=O)N2CCN(c3ccccc3)CC2)C1=O,-12.1%
COc1cc(C(=O)NCCC(=O)NC2CCCc3ccccc32)cc(OC)c1OC (stereo unspecified),2.9%
C=CCOc1ccc(/C=C/C(=O)OCC(=O)NC2CCCCCC2)cc1,24.5%
O=C(Nc1ccncc1)c1cc(S(=O)(=O)N2CCCCC2)ccc1Cl,8.4%
CCNc1ccc(Br)cc(C(=O)/C=C/c2ccc3c(c2)OCO3)c1=O,89.1µM*
CC(C)C1=Nc2cccc3cccc(c23)N1,5.3%
CC1CCCCN1C(=S)NC(=O)c1ccco1 (stereo unspecified),-25.1%
Cc1cccc2cc(CN(CCN(C)C)C(=S)Nc3ccccc3)c(=O)[nH]c12,-18.9%
Cc1ccc(C(=O)Nc2nnc(C3CCCCC3)s2)o1,0.1%
O=C(CCNC(=O)c1ccccc1Cl)NN=Cc1ccccc1[N+](=O)[O-],-13.3%

# Arranged by count of non-hydrogen atoms (falling): 6 of the compounds above.
SMILES,VDR inh
Cc1cccc(-n2ncc3c2CCCC3NC(=O)CCN2CCCO2)c1C (stereo unspecified),-3.2%
O=C(CCNC(=O)c1ccccc1Cl)NN=Cc1ccccc1[N+](=O)[O-],-13.3%
O=C(Nc1ccncc1)c1cc(S(=O)(=O)N2CCCCC2)ccc1Cl,8.4%
COc1ccccc1NC(=O)CSc1n[nH]c(-c2ccco2)n1,?
O=C(N[C@@H](Cc1ccc(O)cc1)C(=O)O)c1cccnc1,15.7%
CC1CCCCN1C(=S)NC(=O)c1ccco1 (stereo unspecified),-25.1%

# Three entries drawn at random from those above, as already listed:
SMILES,VDR inh
CC(C)C1=Nc2cccc3cccc(c23)N1,5.3%
O=C(N[C@@H](Cc1ccc(O)cc1)C(=O)O)c1cccnc1,15.7%
O=C(CCNC(=O)c1ccccc1Cl)NN=Cc1ccccc1[N+](=O)[O-],-13.3%

# Going on with the list.
SMILES,VDR inh
Cc1ccc(C)c(Cn2c(C)nc3c(sc(=S)n3-c3ccccc3)c2=O)c1,-3.9%
CC[C@@]1(C(=O)OC)N[C@H](CN(C)C(=O)c2ccc(F)cc2)[C@@H]2C(=O)N(C)C(=O)[C@@H]21,-14.1%
O=C(N=C1SC2CS(=O)(=O)CC2N1c1ccc(F)cc1)C1CC1 (stereo unspecified),0.5%
CC(C)C(CCN1C(=O)c2ccccc2C1=O)c1ccco1 (stereo unspecified),-8.8%
COc1ccc(/C=C/c2onc(C)c2S(=O)(=O)N2CCC(C(=O)N3CCC(C)CC3)CC2)cc1,1.8%&12.4%
